# Assay outcomes: PubChem BioAssay, National Center for Advancing Translational Sciences (NCATS)
# NPR1 antag: Natriuretic polypeptide receptor (hNpr1) antagonism - Primary qHTS; Atrial natriuretic peptide receptor 1 (Homo sapiens), P16066; HEK293 hNpr1 GloSensor cGMP, ANP-stimulated luminescence; Potency, µM (top dose mostly 46.3 µM), without a hit: at the top dose activity change, negative = inhibition, hits mostly inhibitors; 1.6% of 76,000 active; active = well fitted inhibition curve with a large enough effect; inconclusive = small, poorly fitted or top-dose-only effect; inactive = no such curve, though single readings can be large or run the other way;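 also: nearly all actives have a fitted effect of over 60% in size; nearly all hits also lower the signal before the agonist is added; a reference antagonist and vehicle were the controls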
# Target sequence (P16066 whole entry, looked up): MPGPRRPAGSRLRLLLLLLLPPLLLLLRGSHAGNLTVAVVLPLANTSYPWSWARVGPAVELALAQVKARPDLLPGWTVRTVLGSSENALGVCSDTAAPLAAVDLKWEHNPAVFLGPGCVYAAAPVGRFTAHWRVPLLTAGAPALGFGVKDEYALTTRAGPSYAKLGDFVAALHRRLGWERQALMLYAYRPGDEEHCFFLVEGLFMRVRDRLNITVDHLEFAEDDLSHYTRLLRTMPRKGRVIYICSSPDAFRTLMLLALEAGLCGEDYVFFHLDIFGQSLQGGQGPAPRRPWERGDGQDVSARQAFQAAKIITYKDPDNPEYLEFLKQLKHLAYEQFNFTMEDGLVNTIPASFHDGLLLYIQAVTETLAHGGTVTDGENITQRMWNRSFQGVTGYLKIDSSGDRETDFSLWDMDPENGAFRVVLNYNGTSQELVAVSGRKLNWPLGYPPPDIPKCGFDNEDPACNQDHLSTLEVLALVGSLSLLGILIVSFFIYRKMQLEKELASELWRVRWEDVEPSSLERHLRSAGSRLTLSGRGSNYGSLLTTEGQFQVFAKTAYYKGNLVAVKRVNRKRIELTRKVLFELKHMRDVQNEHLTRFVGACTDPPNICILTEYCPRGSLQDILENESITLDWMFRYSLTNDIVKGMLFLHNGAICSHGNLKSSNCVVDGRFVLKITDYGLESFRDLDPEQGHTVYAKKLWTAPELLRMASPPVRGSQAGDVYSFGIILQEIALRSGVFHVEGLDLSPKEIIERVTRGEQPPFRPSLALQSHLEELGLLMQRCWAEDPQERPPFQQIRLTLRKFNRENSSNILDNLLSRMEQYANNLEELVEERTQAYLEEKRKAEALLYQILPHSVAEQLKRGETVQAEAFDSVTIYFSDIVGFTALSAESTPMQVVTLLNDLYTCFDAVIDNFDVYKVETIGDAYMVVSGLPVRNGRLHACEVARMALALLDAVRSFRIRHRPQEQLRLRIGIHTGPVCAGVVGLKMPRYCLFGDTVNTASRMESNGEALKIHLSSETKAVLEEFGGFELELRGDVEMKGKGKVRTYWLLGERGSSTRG
#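 HEK293 cells stably expressing human Npr1 and cGMP GloSensor pGS-40F, loaded 2 h with 2% GloSensor reagent, given compound 30 min at room temperature. Luminescence read before and 20 min after 0.1 nM hNppA.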
# * hit, by the source's call; ? = inconclusive; & = joins results of further samples; [ ] = another dose, or the depositor's remark. % is scaled to controls: 0 for no effect and ±100 for the full control effect; potency is read from the fitted curve at half-maximal effect. This is a subset, so the mix of outcomes need not match the whole.
SMILES,NPR1 antag
Cc1ncccc1C(=O)N1CCC2(CC1)CC(CO)N(C(=O)c1ccccc1)C2 (configuration not stated),-7.9%
CCC(=O)N(C1CCOCC1)C1CCN(Cc2ccc(C)cc2)CC1,0.2%
CC1(COc2ccccc2)COc2ccc(C(=O)NCc3cccs3)cc2N1 (configuration not stated),-11.2%[70.6 µM]
Cn1cc(-c2ccc3c(n2)CN(Cc2ccccc2)C(=O)CO3)cn1,-3.7%[70.6 µM]
CCC(=O)N1CCC(n2nccc2NC(=O)Nc2ccccc2OC)CC1,-2.3%
NC(=O)c1ccc(-c2nc3c([nH]2)CN(c2ncnc4ccsc24)CC3)cc1,-16.3%
O=C(NCc1ccco1)C1c2ccccc2C(=O)N(C2CCCC2)C12CCCCC2 (configuration not stated),-12.0%
O=S1(=O)CCC(S(=O)(=O)NC2CCCCC2)C1 (configuration not stated),3.7%
O=C(c1ccccc1Cl)N1CCCCC12Cc1ccccc1NC2=O (configuration not stated),9.2%
COc1ccc(CN2CCOc3ccc(C(=O)NCc4ccc(C)cc4)cc3C2)c(OC)c1,-21.3%
COCc1nc(C2CCCN(C(=O)Nc3cc(C)ccc3C)C2)no1 (configuration not stated),0.0%
COc1ccccc1-n1nc(-c2c(C)nc3scc(CC(=O)NCc4ccccc4)n3c2=O)cc1C,3.0%
O=c1ccc2cc(S(=O)(=O)N3CCC4(CCCNC4)C3)ccc2o1 (configuration not stated),5.0%
CS(=O)(=O)NC1CCCN(c2cc(N3CCCC3)ncn2)C1 (configuration not stated),0.3%
Cc1ccc(CN[C@@H]2CO[C@H](CNC(=O)C3CCCC3)[C@H]2O)cc1,-1.8%[70.6 µM]
COc1ccc(-c2cc(N3CCC(NC(=O)c4cc(F)ccc4Cl)C3)n[nH]2)cc1 (configuration not stated),-8.0%
CN(Cc1cccnc1)C(=O)C1C2C(=O)N(c3ccc(CCO)cc3)C[C@@]23C=C[C@@H]1O3 (some centres not stated),7.5%
COc1ccc(Cn2c3c(c(=O)n2Cc2ccccc2)CCN(Cc2cccnc2)C3)cc1,2.3%
COc1ccc(CN2C[C@@H](CO)[C@H](c3nc(C)no3)C2)cc1OC,1.9%
O=C1CC(c2ccccc2)N(Cc2ccc(F)c(F)c2)CCCCCN1 (configuration not stated),-20.5%
COc1cc(NC(=O)Nc2nc3c(s2)C[C@]2(C)CC[C@@H]4[C@H](OC(=O)[C@H]4C)[C@H]2[C@@H]3C)cc(OC)c1,7.7%
CC(C)(C)n1ccc(C(=O)NC2CC(c3nnc(CO)n3C3CC3)C2)c1 (configuration not stated),0.4%
Cc1cccc(NC(=O)C2CC(=O)N(c3n[nH]c4cc(Br)ccc34)C2)c1 (configuration not stated),1.0%
O=C(c1ccccc1)N1CCC(N2C(=O)C(O)C23CCCCC3)CC1 (configuration not stated),-6.4%
CCc1cccc(C)c1NC(=O)CN1C=C(C(=O)OC)C(C)=NS1(=O)=O,-10.3%
Cn1ccnc1C(=O)N1CCC2(CC1)CN(c1ncccn1)CC2CO (configuration not stated),4.2%
Oc1ccc(-c2nc(C3CC3)nc3c2CN(Cc2ccc(OC(F)(F)F)cc2)CC3)cc1,1.0%
CN1C(=O)C2(CCN(C(=O)c3ccccc3F)C2)c2ccccc21 (configuration not stated),3.0%[70.6 µM]
O=C(c1ccc(C2CCCN2)s1)N1CCc2nc[nH]c2C1 (configuration not stated),0.0%
c1ccc(CCN2CCNc3cc(Nc4ccc(N5CCOCC5)cc4)ncc3C2)cc1,-4.6%[70.6 µM]
CNC(=O)[C@@H]1CN(Cc2ccc3cc[nH]c3c2)C[C@H]1c1nc(C)no1,-0.6%
CCOc1ccc(NC(=O)c2nnn3cc(C)[nH]c(=O)c23)cc1,-3.5%
Cc1oc(C(O)c2cccc(O)c2)nc1C(=O)Nc1ccc2c(c1)CNC2=O (configuration not stated),-4.3%[70.6 µM]
O=C1NCCCCCCN(Cc2ccncc2)[C@@H]2CN(S(=O)(=O)c3cccnc3)CC[C@H]12,-1.5%
CCC(OC)C(=O)N1CCN(c2nc(-c3ccccc3)nc3c2CCC3)CC1 (configuration not stated),-8.8%
COc1ccc(NC(=O)C2(C)CCc3cnc(N4CCOCC4)nc32)cc1 (configuration not stated),-2.1%[70.6 µM]
O=C(Nc1ccc2c(N3CCCC3)ncnc2c1)c1cc(F)ccc1F,-16.5%
CCn1c(COc2ccc(C)nc2)nnc1C1CC(N)C1 (configuration not stated),-0.3%
C[C@@H](NC(=O)NC(C)(C)C)c1onc(-c2ccc(F)cc2)c1C(=O)O,-7.7%[70.6 µM]
COc1ccccc1C(=O)N1C2CCCC1CC(=O)C2,13.2%[70.6 µM]
CC(=O)N[C@@H]1CN(Cc2cn[nH]c2-c2ccc(F)cc2)C[C@H]1CO,-3.7%
O=c1c2nc(-c3ccc4c(c3)OCO4)ccc2ncn1Cc1ccccn1,-1.2%[70.6 µM]
O=C(c1ccnc(-c2cncnc2)c1)N1CCCC1,2.2%
COCCOCc1nc(C2CCN(C(=O)C3(c4ccccc4)CC3)C2)no1 (configuration not stated),2.9%
O=C(NCC12CCC=C1N(CC1CC1)C(=O)CC2)c1ccncc1 (configuration not stated),2.9%
COc1ccc(C2Cn3nnc(-c4nc(-c5ccc(Cl)cc5)no4)c3CO2)cc1 (configuration not stated),-4.1%
N#CCn1nc2n(c1=O)CCN(C(=O)Cc1c[nH]c3ccccc13)CC2,-0.1%
COCCOC1CCN(C(=O)c2cc(F)ccc2F)CC1,2.4%
COCC1CN(S(=O)(=O)c2cccs2)CC12CCNCC2 (configuration not stated),4.1%
CCS(=O)(=O)N1CCC2(CC1)CN(C(C)=O)CC2COC (configuration not stated),0.3%

# In another format: entries from further up.
NPR1 antag | compound
2.9% | O=C(NCC12CCC=C1N(CC1CC1)C(=O)CC2)c1ccncc1 (configuration not stated)
2.4% | COCCOC1CCN(C(=O)c2cc(F)ccc2F)CC1
4.1% | COCC1CN(S(=O)(=O)c2cccs2)CC12CCNCC2 (configuration not stated)
-3.7% | CC(=O)N[C@@H]1CN(Cc2cn[nH]c2-c2ccc(F)cc2)C[C@H]1CO
2.2% | O=C(c1ccnc(-c2cncnc2)c1)N1CCCC1

# New compounds follow
SMILES,NPR1 antag
CS(=O)(=O)c1ccc(N2CCN(CC3(O)CNCCOC3)CC2)c(F)c1 (configuration not stated),-1.2%
Cc1ccc(S(=O)(=O)NC[C@H]2OC[C@@H](NCc3ncc[nH]3)[C@@H]2O)cc1,-0.2%[70.6 µM]
O=C(c1ccc(Cl)nc1)N1CCC2(C1)C(=O)N(CCc1ccccc1)c1ccccc12 (configuration not stated),6.0%&-20.4%
CCNC(=O)c1ccc2c(c1)OCCN(c1cccc(OC(F)(F)F)c1)C2,-28.6%[70.6 µM]
CCC(CC)C(=O)N1CC(C(=O)NCCc2ccncc2)C2(CCOCC2)C1 (configuration not stated),-2.8%
CSc1cccc(NC(=O)Cn2c(=O)c(-c3noc(C)n3)c3n(c2=O)CCCCC3)c1,2.3%
Cc1ncnc(N2CCC3(CC2)CC(=O)N(CCCc2ccccc2)C3)c1C,4.47µM*
COC(=O)c1ccccc1NC(=O)Cn1c(-c2ccc(F)cc2)nc(C)cc1=O,-13.3%
CN1C(=O)CO[C@H]2CCN(Cc3cccc(OC(F)(F)F)c3)CC[C@@H]21,-12.1%[70.6 µM]
O=C(CCc1nnn2c1CN(C(=O)NCCc1ccccc1)CC2)NC1CC1,1.5%
CNC(=O)[C@@H]1CN(S(=O)(=O)c2ccc(Cl)s2)C[C@H]1c1nc(C)no1,5.3%
O=C(NC1CCN(c2nc3ncccc3o2)CC1)c1cccc(Cl)c1,-16.6%
CCc1noc(-c2ccn3c(CNC(=O)C4CCCC4)nnc3c2)n1,5.3%
COC(=O)[C@@H]1Cc2c([nH]c3ccccc23)[C@H]2C[C@H](NCCCn3ccnc3)C[C@@H](c3ccccc3F)N21,-0.3%
O=[S+]([O-])(Nc1ccccc1)c1ccc2c(c1)OCCN(Cc1cccnc1)C2,22.4µM*
CN1CCNc2cc(-c3ccc(N4CCOCC4)cc3)ncc2C1,-18.8%[70.6 µM]
COc1ccc(C2(C(=O)N3CCC4(CC3)CC(N3CCOCC3)CCO4)CC2)cc1 (configuration not stated),-9.6%
COc1ccc(S(N)(=O)=O)cc1C(=O)NC1CCOC2(CCOCC2)C1 (configuration not stated),9.5%
CS(=O)(=O)N1CCC(C2CCN(C(=O)Cc3c[nH]c4ccccc34)C2)CC1 (configuration not stated),3.6%
COc1ccc(C(=O)N2CCC[C@H]2c2nc(-c3ccc(OC)c(OC)c3)no2)cc1F,-4.2%

# NPR1 antag: hit marks shown above
SMILES,NPR1 antag
Cc1ncnc(N2CCC3(CC2)CC(=O)N(CCCc2ccccc2)C3)c1C,4.47µM*
O=[S+]([O-])(Nc1ccccc1)c1ccc2c(c1)OCCN(Cc1cccnc1)C2,22.4µM*

# Further results
SMILES,NPR1 antag
COc1ccc(C(=O)N2CCC(c3n[nH]c(=O)n3Cc3ccc(F)cc3)CC2)c(C)c1,1.8%
O=C(O)CCc1cc2n(n1)CCCN(Cc1cn[nH]c1C(=O)O)C2,5.0%
CC(C)CCN1CC2(CCCN(C(=O)CN3C(=O)CN(C)C3=O)C2)CCC1=O (configuration not stated),3.9%
COc1ccc(CN2CCc3nc(C(=O)N4CCOCC4)oc3CC2)cc1OC,-5.7%[70.6 µM]
Cc1ccc(C)c(C(=O)NCc2nnc3cc(-c4nc(C(C)C)no4)ccn23)c1,12.6%
c1ccc(-c2noc(-c3ccccc3OC3CNC3)n2)cc1,?
Cc1ccc(-c2cc3c(=O)n(CCNC(=O)c4cc(F)ccc4F)ccn3n2)cc1C,-14.9%
COCCN1C(=O)CO[C@H]2CN(C(=O)Nc3ccc(F)cc3)C[C@H]21,-13.8%[70.6 µM]
Cc1cnc(C(=O)N2CCCC(c3nnc(Cn4ccnc4)n3C)C2)cn1 (configuration not stated),1.2%
COCCNC(=O)C[C@@H]1C[C@@H](C(C)C)[C@H](CNC(=O)c2cnccn2)C=C1C,1.5%[70.6 µM]
CC(=O)N1CCC(N2C[C@H](O)C[C@H]2c2nc(-c3cccc(C)c3)no2)CC1,-7.9%[70.6 µM]
CCOC(=O)C1=CN(CC(=O)Nc2ccccc2C)S(=O)(=O)N=C1C,6.2%
CC[C@H]1CN(C(=O)c2ccnc(Cl)c2)CC[C@H]1CC(=O)NCc1cccc2ccccc12,4.6%
O=C(c1ccccc1F)N1CCC2(C1)C(=O)N(CCc1ccccc1)c1ccccc12 (configuration not stated),18.5%&-5.4%
Cc1ccc(Cl)cc1NC(=O)Cn1c(N2CCCCC2)nc(C)c(C)c1=O,-7.3%
C[S+](=O)([O-])CCn1ncc2cc(OCc3cccc(-c4cncnc4)c3)ccc21,-18.9%[70.6 µM]
COc1ccccc1CNC(=O)[C@@H]1CNC[C@H]1COc1cccnc1,3.7%
COC1CN(c2ccc(C)cc2)C12CCN(C(=O)Cc1ccccc1)CC2 (configuration not stated),-0.4%
CN1CCCN(C[C@@H]2CN(C(=O)CCn3cccn3)C[C@@H]2CO)CC1,26.2%
CCOCc1nc(C2CCCN(C(=O)c3ccnn3C)C2)no1 (configuration not stated),0.5%
O=C(NCc1cccnc1)[C@@H]1C[C@@H](O)CN1C1CCN(C(=O)c2ccccc2)CC1,-0.2%
CCN1C(=O)CCN(C(=O)NCCc2ccccc2)CC12CCOCC2,3.0%
CCOc1ccccc1NC(=O)N1CCC(C(=O)N2CCCCCCNC(=O)CC2)CC1,4.3%
COc1ccc(-c2noc(C(=O)O)c2[C@@H](C)NC(=O)c2cccnc2)cc1,-0.5%[70.6 µM]
CCOC(=O)C1=C(C)N=C2SC=C(CC(=O)N3CCCC3)N2C1c1cc(OC)cc(OC)c1 (configuration not stated),?
CO[C@H]1C(=O)N(C(C)C)[C@H]1C1CCN(Cc2ccc(C)s2)CC1,1.5%
CCOCc1nc(C2CCCN(C(=O)c3ccncc3)C2)no1 (configuration not stated),2.7%
COCc1ccc2c(c1)c(OC(C)(C)C(=O)NCC(C)C)nn2Cc1cccnc1,9.9%[70.6 µM]
Cc1nn(C)c(C)c1C(=O)N1C[C@@H](CO)[C@H](c2ccccn2)C1,-0.2%
NC1CCc2nn(CC(=O)NCc3ccc4c(c3)OCO4)c(=O)n2CC1 (configuration not stated),2.0%
COc1cccc(C(=O)N2CCC3(CC2)NC(=O)N(Cc2ccc(F)cc2)C3=O)c1,-16.2%
COc1ccc(NC(=O)C2COC3(CCN(C(=O)c4ccco4)CC3)N2C(=O)c2ccccc2)cc1 (configuration not stated),-2.5%
COCC(=O)NC[C@H]1CCN(Cc2ccc(Cl)cc2)C[C@H]1N(C)C,8.1%
CCOc1ccc(NC(=O)COc2cccc(-c3nnc4n3CCCC4)c2)cc1,1.4%
CCN1c2cc(C(=O)Nc3ccc(F)c(Cl)c3)ccc2C(=O)N2CCCC21 (configuration not stated),-5.3%
CCn1c(=O)c2c(cc(C)n2C)n(CC(=O)Nc2ccc(C)cc2Cl)c1=O,4.5%
O=C(NCc1ccncc1)C1CCN(C(=O)c2ncn3c2COC(c2ccccc2)C3)CC1 (configuration not stated),?
O=C(c1cccs1)N1CCC(Oc2ncccc2C(=O)N2CCCCC2)C1 (configuration not stated),-2.7%

# Reformatted bar-delimited: part of the list above
canonical_smiles | NPR1 antag
COc1ccc(NC(=O)C2COC3(CCN(C(=O)c4ccco4)CC3)N2C(=O)c2ccccc2)cc1 (configuration not stated) | -2.5%
COCC(=O)NC[C@H]1CCN(Cc2ccc(Cl)cc2)C[C@H]1N(C)C | 8.1%
CCOc1ccc(NC(=O)COc2cccc(-c3nnc4n3CCCC4)c2)cc1 | 1.4%
CCN1c2cc(C(=O)Nc3ccc(F)c(Cl)c3)ccc2C(=O)N2CCCC21 (configuration not stated) | -5.3%
